T cruzi repl: T. cruzi replication inhibition; T. cruzi beta-gal in NIH3T3, luminescence, 90 h; inhibition, % (no concentration beside the values); 1.4% of 300,000 active;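 active = mean inhibition across valid replicates above about 55%, limit read from the data; inconclusive = mean below that limit but half or more replicates reach it; inactive = mean below it, under half of replicates reach it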;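 note: signal also drops with host cell toxicity which is not excluded here; 0% = plate median of DMSO wells and 100% = zero luminescence signal; higher percent means less beta-gal luminescence so fewer parasites; stock transfer was 50 nL into about 50 µL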
Calb FLC: affects C. albicans growth with fluconazole; C. albicans CaCi-2 (fluconazole-resistant clinical isolate) + fluconazole, Alamar Blue growth, 48 h; growth inhibition, % (no concentration beside the values); 0.57% of 300,000 active; AID 1979;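 active = most replicates above 75%; inconclusive = exactly half above 75%; inactive = most below 75%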;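 note: all wells also contain fluconazole at 8 µg/ml as a sub-toxic cotreatment; 0% = median of DMSO wells and 100% = median of geldanamycin control wells; wells of about 8 µL received 7.5 nL stock; the first replicate is given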
Ecoli rRNA inh: inhibits bacterial ribosomal RNA function over humanized ribosomes | E. coli WT GFP vs humanized-ribosome RFP mutants, fluorescence, 24 h; stronger effect = lower value; DMSO median 0, no signal -100 | GFP signal change (wild-type ribosome), % (concentration not given with the values) | 1.6% of 350,000 active | AID 720706;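 active = significant combined selectivity score with lowered wild-type GFP, culture density cut under 30%, mutant RFP and density less affected; inactive = any of these conditions unmet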; note: one replicate is shown; some compounds called inactive have numbers as strong as hits
Beta cell apopt: beta cell apoptosis inhibition; INS-1E cytokine-induced death, ATP luminescence, 48 h; percent of positive-control rescue, neutral wells zero; protection from apoptosis, % (concentration not given with the values); 0.8% of 300,000 active;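 active = all replicates at 75% or more, or half of them and the mean; inconclusive = half reach 75% but not the mean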;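 note: 0% = cytokine-treated negative control wells and 100% = positive control rescue; higher means more ATP so stronger rescue from cytokine killing; wells of about 40 µL received 100 nL stock; the first replicate is given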
A1 inh: inhibitors of the anti-apoptotic protein A1, read as caspase activation. caspase activation, % (test concentration not listed). 0.066% of 330,000 active. AID 2462. MEF A1-2A-BIM cells, Caspase-Glo 3/7 luminescence, 3 h; percent of clofoctol response, vehicle zero;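 active = over half of replicate activation scores above 10%, or exactly half above 10 with the replicate mean above 10; inconclusive = replicate mean below 10 yet half the replicates above 10; inactive = over half of replicates below 10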;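 note: wells of about 30 µL received 50 nL stock; many hits fall short of the cut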
RanGTP-Imp inh: disruptors of Ran-importin-beta complex formation – biochemical, FRET, CFP-Ran, YFP-importin-beta, homogeneous, primary screen | cell-free CFP-Ran/YFP-importin-beta FRET ratio | inhibition, % (test concentration not listed) | 1.1% of 300,000 active | AID 2216;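 active = most replicates above 15%; inconclusive = exactly half above 15%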;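 note: 0% = DMSO wells and 100% = Ran loaded with GDP instead of GTP; wells of about 40 µL received 100 nL stock; the first replicate is given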
Vif TR-FRET: HIV-1 Vif–A3G interaction blockers – biochemical, TR-FRET, GST-Vif 1-94, biotin-A3G peptide, dose response retest, primary screen (AID 1117319) | TR-FRET GST-Vif / biotin-A3G peptide binding; higher % means a stronger effect; test concentration not given here; strong numbers were not always called active | one-dose inhibition, %; IC50 in µM for titrated hits | 0.57% of 260,000 active;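 active = above the screen mean plus three standard deviations and confirmed in dose response; inconclusive = results disagree or hit not tested in dose response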;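 note: Vif residues 1-94 fused to GST binding biotinylated APOBEC3G peptide 110-148; 0% = full assay without inhibitor and 100% = GST in place of GST-Vif; retest series ran down from 100 µM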
MLL AF4-AF9 inh: inhibitors of human MLL-AF4/AF9 interaction. inhibition, % at 10 µM. 0.47% of 350,000 active. AlphaScreen, biotin-AF4 peptide binding to FLAG-AF9. AID 651704;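 active = every replicate reaching a set inhibition limit, whatever the replicate mean, cut at about 25% in these data; inconclusive = mean inhibition reaches that limit but some replicates miss it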;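 note: 0% = plate neutral control median and 100% = total signal loss; the record names both 10 and 1 µM as test concentration; the first replicate is given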
Target sequence (P42568 whole entry, looked up): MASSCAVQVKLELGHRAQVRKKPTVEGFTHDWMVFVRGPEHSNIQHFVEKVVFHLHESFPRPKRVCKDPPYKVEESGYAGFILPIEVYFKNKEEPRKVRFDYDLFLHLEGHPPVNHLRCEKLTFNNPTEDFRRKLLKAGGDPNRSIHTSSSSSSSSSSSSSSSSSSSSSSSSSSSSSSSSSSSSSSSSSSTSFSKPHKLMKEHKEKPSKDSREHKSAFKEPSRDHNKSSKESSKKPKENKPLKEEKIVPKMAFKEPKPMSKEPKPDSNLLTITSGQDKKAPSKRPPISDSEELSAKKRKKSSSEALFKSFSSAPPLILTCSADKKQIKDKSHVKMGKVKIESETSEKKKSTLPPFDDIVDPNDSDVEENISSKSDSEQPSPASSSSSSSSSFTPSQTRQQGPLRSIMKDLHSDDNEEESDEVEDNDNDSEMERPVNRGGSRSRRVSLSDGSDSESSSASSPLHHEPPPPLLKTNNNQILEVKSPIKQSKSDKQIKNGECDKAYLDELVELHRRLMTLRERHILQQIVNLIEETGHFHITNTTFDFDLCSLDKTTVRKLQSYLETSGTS
Ecoli rRNA inh OD600: further read-out of Ecoli rRNA inh, marked with its call; OD600 change, %; measured here: OD600 growth;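 optical density of the mix in the first replicate; 0 = DMSO median and -100 = no signal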
Ecoli rRNA inh RFP: recorded beside Ecoli rRNA inh, whose call it bears; RFP signal change, %; measured here: RFP humanized mutant strains;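 first replicate; 0 = DMSO median and -100 = no signal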
The depositor's hits bear a star; u = inconclusive; x = not tested or not shown.

SMILES | T cruzi repl | Calb FLC | Ecoli rRNA inh | Ecoli rRNA inh OD600 | Ecoli rRNA inh RFP | Beta cell apopt | A1 inh | RanGTP-Imp inh | Vif TR-FRET | MLL AF4-AF9 inh
COc1cc(NC(=O)CSc2nnc(-c3cc(C)on3)o2)cc(OC)c1 | -7 | -5 | -2 | 1 | -1.9 | -1 | -1.4 | -2.5 | -1% | -0.1
Cc1ccc(C(=O)COC(=O)c2cnccn2)cc1C | -9 | 17 | x | x | x | 0 | -0.5 | -1.8 | x | x
O=C(O)c1cccc(NS(=O)(=O)c2ccc(Oc3ccc(S(=O)(=O)Nc4cccc(C(=O)O)c4)cc3)cc2)c1 | -24 | -1 | x | x | x | x | 1.0 | -4.7 | x | 0.7
N#CCOc1coc(CN2CCN(c3ccccc3)CC2)cc1=O | 0 | 1 | 11 | 7 | -3.0 | x | 0.6 | u | x | -2.5
Clc1cccc(C2CCN(Cc3nc(COc4ccccc4)no3)C2)c1 (centres undefined) | 20 | 1 | -13 | -9 | 24 | -3 | 0.4 | 3.7 | 5% | 0.9
Cc1ccc(Cc2c[nH]c(=S)s2)cc1 | 2 | 2 | -43 | -49 | -5.0 | -10 | 0.2 | 0.2 | 5% | -3.5
CSc1nc(-c2ccco2)nn1S(C)(=O)=O | 1 | -6 | x | x | x | -3 | 1.6 | 1.6 | 15% | x
CCn1ncc(C2=NOC(C(=O)Nc3ccc(C)cc3)C2)c1C (centres undefined) | 0 | 1 | x | x | x | 5 | 0.1 | 0.8 | 1% | x
O=C(N/N=C/c1cc2c(cc1Br)OCO2)c1cccnc1 | 1 | 10 | 16 | 17 | -1.3 | -3 | 2.0 | -2.3 | -4% | -1.2
Cc1cccc(-n2c(O)c(C=NC3CCS(=O)(=O)C3)c3ccccc3c2=O)c1 (centres undefined) | -13 | -1 | x | x | x | -4 | -2.5 | 3.9 | -2% | x
O=[N+]([O-])c1ccc(Nc2ccccc2O)c2nonc12 | -4 | -9 | 5 | -16 | -0.6 | x | -0.7 | -6.7 | 5% | 9.4
CCOC(=O)N1CCC(n2c(SCC(=O)NCCC3=CCCCC3)nc3ccccc3c2=O)CC1 | 53 | 3 | x | x | x | 14 | -0.3 | -3.1 | -5% | x
COc1ccc(Br)cc1CNC(=O)CN1C(=O)C(c2ccccc2)Oc2cccnc21 (centres undefined) | 36 | -7 | -2 | -1 | -0.3 | x | 1.3 | 3.1 | 0% | 1.0
COc1ccc(CC(=O)Nc2c(C(=O)N3CCN(c4ncccn4)CC3)oc3ccccc23)cc1OC | 17 | -7 | 1 | 0 | -0.6 | -1 | 0.9 | -3.1 | x | 0.1
CCCN(CCO)C1CCN(CCc2ccccc2)CC1 | -1 | 2 | 22 | 2 | -2.5 | -8 | -2.2 | 3.4 | x | -2.8
CCC(Sc1ccc2nnc(CCNS(=O)(=O)c3ccc(OC)cc3)n2n1)C(=O)OC (centres undefined) | 2 | 42 | -2 | -3 | 2.4 | 0 | -0.4 | 3.3 | -1% | 1.0
CCOC(=O)c1c(-c2cccs2)csc1NC(=O)c1ccncc1 | 55* | 25 | x | x | x | 1 | -0.1 | 8.3 | -36% | x
Cc1cccc(C(=O)OCc2cncs2)c1 | -11 | -52 | -1 | 5 | -4.5 | -6 | -4.2 | 1.8 | x | -1.8
O=C(O)c1ccccc1C(=O)c1ccc(Cl)cc1 | 1 | -7 | 13 | 7 | -0.8 | 3 | 0.0 | 6.2 | -3% | -4.5
O=C(OCc1ccc(Br)cc1)c1cccc(S(=O)(=O)N2CCCC2)c1 | -5 | -17 | -5 | -14 | 0.4 | -6 | 1.5 | u | 1% | -30
Cc1c(Nc2nc3ccccc3nc2NS(=O)(=O)c2cccs2)c(=O)n(-c2ccccc2)n1C | -11 | -9 | x | x | x | 0 | -0.2 | -1.3 | 2% | x
O=C(/C=C/Nc1ccc(Oc2ccccc2)cc1)c1ccco1 | 0 | -3 | -25* | -0.5* | 7.8* | x | 0.2 | -6.1 | 13% | 5.5
CCCN(CCC(=O)Nc1cc(OC)cc(OC)c1)CC1CC1 | 3 | -8 | x | x | x | -8 | -0.1 | -2.4 | 2% | x
NC(N)=NCCCC(NC(=O)c1ccccc1)C(=O)Nc1ccc([N+](=O)[O-])cc1 (centres undefined) | -10 | -1 | x | x | x | -2 | 0.6 | u | x | 7.4
CS(=O)(=O)Nc1ccc(C2=NN(S(=O)(=O)c3ccc(F)cc3)C(c3ccco3)C2)cc1 (centres undefined) | 3 | -8 | -25 | -17 | -6.4 | -2 | 0.1 | 0.2 | -3% | -1.9
SMILES | T cruzi repl | Calb FLC | Ecoli rRNA inh | Ecoli rRNA inh OD600 | Ecoli rRNA inh RFP | Beta cell apopt | A1 inh | RanGTP-Imp inh | Vif TR-FRET | MLL AF4-AF9 inh
COc1cc(CNc2nc(C)c([N+](=O)[O-])c(C)c2C#N)cc(OC)c1OC | -19 | 2 | 11 | 12 | -5.7 | 9 | -0.6 | 1.0 | x | -0.5
CSc1nccc(-c2cc(Cl)sc2Cl)n1 | -3 | 11 | x | x | x | 0 | 0.2 | -3.3 | -9% | x
CC(=O)c1sc(NC(=O)C(C)(C)C)nc1C | -3 | -6 | x | x | x | -1 | 0.2 | 0.2 | -24% | x
CC1Cc2ccccc2N1S(=O)(=O)c1cccc(C(=O)OCC(=O)N2CCOCC2)c1 (centres undefined) | x | x | -3 | -23 | 3.2 | -1 | -1.2 | x | -5% | -2.6
COc1ccc(CNC(=O)CNC(=O)c2sc3ccccc3c2Cl)cc1OC | 13 | 2 | 4 | 8 | -1.6 | -5 | -0.9 | 4.2 | -23% | -1.8
CC(Oc1ccc(Cl)cc1)C(=O)Nc1nccs1 (centres undefined) | -5 | -33 | x | x | x | 3 | 0.5 | -1.2 | 0% | x
Cc1ccccc1Nc1nnc(SCC(=O)Nc2ncc(C(F)(F)F)cc2Cl)s1 | -32 | 18 | x | x | x | -1 | -3.7 | -1.8 | u | x
CCCCNC(=O)Nc1ccnn1C1CCCCC1 | -9 | 6 | x | x | x | 1 | 0.2 | 8.6 | 24% | x
COc1ccc(CNCc2ccc(C)cc2)c(OC)c1 | 6 | -5 | 13 | 3 | 0.1 | x | 0.1 | 2.8 | -9% | 0.5
c1ccc(CSc2nnc(-c3ccccn3)n2-c2ccccc2)cc1 | 13 | 13 | x | x | x | 0 | 0.7 | -4.0 | -35% | x
COc1ccc(C(=O)N/C(=C\c2ccccc2)C(=O)Nc2ccc(C(=O)NCC(=O)O)cc2)cc1 | 3 | 4 | -6 | 0 | -0.7 | x | 0.3 | 0.3 | x | -1.1
CCCNC(=O)c1c(NC(=O)C2COc3ccccc3O2)sc2c1CCCC2 (centres undefined) | -4 | 1 | x | x | x | -1 | 0.7 | 4.7 | 1% | x
COc1ccc(OC)c(/C=C/C(=O)c2ccc(Cl)cc2)c1 | -3 | -5 | x | x | x | -3 | -0.1 | -18 | -4% | x
CN(C(=O)COc1ccc2c(-c3ccccc3)cc(=O)oc2c1)C1CCS(=O)(=O)C1 (centres undefined) | -7 | -3 | -3 | -7 | 3.0 | x | -0.7 | 7.4 | x | -0.6
COc1cc2oc(=O)ccc2c(OC)c1CC(O)C(C)(C)O (centres undefined) | -17 | 1 | 2 | 6 | -5.0 | -2 | -0.2 | 3.1 | 10% | -4.0
CCOc1cccc(C(=O)NC(c2ccccc2)C(C)C)c1 (centres undefined) | -5 | u | 13 | 4 | 2.6 | -3 | -0.1 | -1.7 | 1% | 0.2
CC(C)(CNC(=O)CC1C(=O)NCCN1Cc1cccc(F)c1F)N1CCOCC1 (centres undefined) | -8 | 0 | 1 | 6 | -0.6 | -2 | 1.6 | 1.8 | x | 0.9
CC1(O)CC(c2ccc(Cl)cc2)=NN1C(=O)c1ccc([N+](=O)[O-])cc1 (centres undefined) | 6 | 95* | 14 | 16 | 0.1 | 48 | 0.3 | u | 2% | 3.8
Clc1ccc(/C=C\c2nccc3c2[nH]c2ccccc23)cc1 | 13 | 4 | -25* | -18* | 3.0* | x | x | 28* | 13% | -7.7
COC(=O)C1CCN(C(=O)CN2C(=O)NC3(CCC(C)CC3)C2=O)CC1 (centres undefined) | x | x | 2 | 10 | -0.6 | 2 | 0.8 | x | 8% | -3.4
Cc1ccc(NS(=O)(=O)c2c(C)[nH]c(=O)[nH]c2=O)c(C)c1 | -7 | 4 | 10 | 9 | 2.8 | -4 | 1.0 | 1.5 | -11% | -1.7
COc1ccccc1Nc1nc(-c2sc(NC(=O)c3ccco3)nc2C)cs1 | 26 | -3 | -9 | -4 | -2.0 | 7 | -2.7 | 2.7 | 4% | -2.4
c1ccc2c(OCCCCN3CCOCC3)cccc2c1 | -8 | -9 | -6 | 2 | 1.3 | -9 | 1.3 | 3.1 | x | -0.7
Cc1ccnc(Sc2nc3c(c(=O)[nH]c(=O)n3C)n2CCCc2ccccc2)n1 | u | 5 | x | x | x | 1 | 0.1 | -1.5 | 2% | x
CN(C)C(CNC(=O)CCC(=O)c1ccc(Br)cc1)c1ccccc1 (centres undefined) | 4 | 1 | 0 | 3 | 1.4 | -6 | 0.5 | 6.3 | 1% | 3.8
SMILES | T cruzi repl | Calb FLC | Ecoli rRNA inh | Ecoli rRNA inh OD600 | Ecoli rRNA inh RFP | Beta cell apopt | A1 inh | RanGTP-Imp inh | Vif TR-FRET | MLL AF4-AF9 inh
CC(=O)Nc1ccc(NC(=O)C(C)Sc2n[nH]c(-c3cccs3)n2)cc1 (centres undefined) | x | x | 2 | -2 | -2.1 | 0 | 0.0 | x | 0% | 3.4
CCCCc1cc(-c2n[nH]c(=S)o2)c2ccccc2n1 | 25 | -5 | -5 | -22 | 2.4 | 8 | 0.8 | 20* | -4% | -1.0
CC(=O)NC(c1ccc(C(C)C)cc1)c1c(O)ccc2ccccc12 (centres undefined) | 10 | -14 | -24 | -23 | 9.5 | -4 | -0.2 | -2.7 | x | 2.0
COc1ccccc1C(=O)Nc1ccc(Br)cc1C | 13 | 2 | 3 | 13 | 2.2 | -1 | -0.5 | 6.5 | -6% | -1.3
CN(C)c1ccc(C(=O)OCC(=O)NCCC2=CCCCC2)cc1 | -1 | -25 | -2 | -11 | -1.7 | -6 | 0.2 | -1.0 | 7% | -2.4
COC(=O)c1ccc(N=NN2CCCCCC2)cc1 | -2 | -23 | -6 | -18 | -7.6 | 3 | -2.4 | 0.9 | u | 0.3
CN(C)S(=O)(=O)Oc1cccc(C(=O)Nc2cccc(Cl)c2)c1 | 8 | 108* | x | x | x | -1 | -5.9 | 0.6 | u | x
CC(=O)NC(c1ccc(C)cc1)c1cc([N+](=O)[O-])c2cccnc2c1O (centres undefined) | 55* | 109* | -25* | -17* | 3.1* | 71 | 0.2 | -1.1 | u | -0.4

A portion of the library. The share of hits here may be higher or lower than overall.
